Polio RdRp inh: poliovirus RdRp elongation inhibitors, primary screen, biochemical, fluorescence polarization, total intensity; poliovirus polymerase elongation; hits give low values; % elongation, % (compound at 16.7 µg/mL); 150,000 compounds, 0.66% hits; in the data active = % elongation below about 90%; also: some results filed as inactive read as strong as hits
MenB inh: M. tuberculosis MenB inhibitors, primary screen, biochemical, absorbance; 100,000 compounds, 0.43% hits; MenB enzyme assay, absorbance read-out; some hits fall short of the stated cut; inhibition, %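 (about 12 µg/mL by stock and volumes)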; 1,4-dihydroxy-2-naphthoyl-CoA synthase (Mycobacterium tuberculosis (strain ATCC 25618 / …;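 active = mean of two replicates above 30%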;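 also: 0% = no compound and 100% = wells with inactive enzyme; the first replicate is given; strong numbers were not always called active; inactives centre near -10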
Target sequence (P9WNP5 whole entry, looked up): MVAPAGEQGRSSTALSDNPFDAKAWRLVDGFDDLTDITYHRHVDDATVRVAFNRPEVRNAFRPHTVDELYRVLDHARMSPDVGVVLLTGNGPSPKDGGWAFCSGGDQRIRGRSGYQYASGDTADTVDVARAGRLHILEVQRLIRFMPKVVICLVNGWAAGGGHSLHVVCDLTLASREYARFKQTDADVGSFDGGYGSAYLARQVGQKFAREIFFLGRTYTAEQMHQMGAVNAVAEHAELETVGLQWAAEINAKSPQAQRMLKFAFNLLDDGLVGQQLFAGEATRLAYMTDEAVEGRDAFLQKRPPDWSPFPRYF
Mtb MbtI inh: MbtI salicylate synthase inhibitors, primary screen, biochemical, fluorescence intensity; P9WFX0; purified MbtI enzyme, fluorescence intensity read-out; inhibition, %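 (about 17 µg/mL by stock and volumes)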; 100,000 compounds, 0.89% hits; AID 493033, 2011;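 active = above 50% in both replicates, above 80% if mildly self-fluorescent; inactive = the rest, strongly fluorescent compounds included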;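 also: 0% = mean of negative and 100% = mean of positive controls; one replicate is shown; some compounds called inactive have numbers as strong as hits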
Target sequence (P9WFX0 whole entry, looked up): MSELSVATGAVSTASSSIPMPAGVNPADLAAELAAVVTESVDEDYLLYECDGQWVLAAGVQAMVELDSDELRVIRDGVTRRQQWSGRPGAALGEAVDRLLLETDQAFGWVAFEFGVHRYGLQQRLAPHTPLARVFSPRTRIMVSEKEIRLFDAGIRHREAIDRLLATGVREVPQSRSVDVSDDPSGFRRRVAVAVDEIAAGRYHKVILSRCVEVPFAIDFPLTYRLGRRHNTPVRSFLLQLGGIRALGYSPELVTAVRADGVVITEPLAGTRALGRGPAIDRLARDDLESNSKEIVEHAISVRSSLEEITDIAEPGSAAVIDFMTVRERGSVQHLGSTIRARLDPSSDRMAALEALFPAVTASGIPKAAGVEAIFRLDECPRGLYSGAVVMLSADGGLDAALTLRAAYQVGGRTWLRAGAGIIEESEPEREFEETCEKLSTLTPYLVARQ
Polio RdRp inh intensity: recorded beside Polio RdRp inh, whose call it bears; % elongation; measured here: total intensity read-out; formula for this scale not given here;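 total fluorescence in place of polarization; lower means less elongation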
Starred values were filed as active, the others as inactive; / = no result given; & = joins results of further samples.

SMILES | Polio RdRp inh | Polio RdRp inh intensity | MenB inh | Mtb MbtI inh
CO[C@H]1O[C@H](COC(C)=O)[C@@H](OC(C)=O)[C@H](OC(C)=O)[C@H]1OC(C)=O | 103.0 | 99.0 | 3.7 | 6.9
COc1ccc(-c2nnc(SCc3c(Cl)cccc3Cl)o2)cc1 | 101.0 | 101.0 | -32.6 | -3.5
CCn1c(SCC(=O)O)nnc1-c1cccs1 | 101.0 | 103.0 | 6.4 | -2.2
CCN1CCN(C(=O)C2CCN(Cc3cc(Cl)ccc3O)CC2)CC1 | 99.0 | 97.0 | 12.1 | 1.7
FC(F)(F)C1=CC(c2ccccc2)=NCCN1 | 102.0 | 111.0 | -7.6 | /
CCS(=O)(=O)c1ccc2oc(SCC(=O)N3c4ccccc4CC3C)nc2c1 (stereo not drawn) | 96.0 | 104.0 | -12.7 | 1.0
COc1ccc(NC(=O)c2sc3nc4n(c(=O)c3c2C)CCCCC4)cc1 | 105.0 | 101.0 | -31.5 | 2.2
CCC1(c2ccccc2)C(=O)N(COC)C(=O)N(COC)C1=O | 102.0 | 103.0 | -20.1 | -7.8
CCNc1nc(NCC)n2c(SCC(=O)NC3=C(C(=O)OCC)C4CCCC4S3)nnc2n1 (stereo not drawn) | 106.0 | 105.0 | -21.7 | -0.8
CCS(=O)(=O)c1ncc(CO)n1CCc1ccccc1 | 104.0 | 105.0 | -24.2 | -7.2

2 neighbouring entries from above, quoted:
SMILES | Polio RdRp inh | Polio RdRp inh intensity | MenB inh | Mtb MbtI inh
CCNc1nc(NCC)n2c(SCC(=O)NC3=C(C(=O)OCC)C4CCCC4S3)nnc2n1 (stereo not drawn) | 106.0 | 105.0 | -21.7 | -0.8
CCS(=O)(=O)c1ncc(CO)n1CCc1ccccc1 | 104.0 | 105.0 | -24.2 | -7.2

Next part:
SMILES | Polio RdRp inh | Polio RdRp inh intensity | MenB inh | Mtb MbtI inh
Nc1ccc(C(=O)O)c(O)c1 (tested in a mixture with another compound) | 99.0 | 101.0 | 1.6 | -16.4
CN(Cc1ccccc1)C(=O)c1cccc(F)c1 | 107.0 | 107.0 | -12.4 | 0.2
COC(=O)c1cc(CNCC2(N3CCCCC3)CCCCC2)oc1C | 102.0 | 94.0 | -14.3 | -10.3
CCN(C(=O)CSc1nc(C)cc(COC)c1C#N)c1ccccc1 | 101.0 | 103.0 | -29.1 | -8.1
COc1ccc(CNC(=O)CSC(C)(C)C)cc1OC | 100.0 | 108.0 | -12.6 | -9.8
Clc1ccc(OCc2ccccc2)c(Cl)c1 | 104.0 | 111.0 | -9.9 | /
O=C(Cc1cccs1)Nc1nc2ccccc2s1 | 113.0 | 113.0 | -19.2 | /
O/N=C/c1ccc(N2CCOCC2)cc1 | 99.0 | 100.0 | -5.1 | /
CC1=CC(C)C2C(=O)N(c3ccc[n+](C)c3)C(=O)C2C1 (stereo not drawn) | 102.0 | 98.0 | 10.9 | 22.3
COC(=O)C1=C(C)OC(N)=C(C#N)C1c1c(C)nn(-c2ccccc2)c1Cl (stereo not drawn) | 99.0 | 102.0 | -42.8 | 10.4
COc1ccc(C2=CSC3=NS(=O)(=O)CCN23)cc1OC | 105.0 | 107.0 | -1.3 | 12.5
Oc1ccc(CN2CCN(c3ccccc3)CC2)c2cccnc12 | 106.0 | 98.0 | -51.0 | -2.4
Clc1ccc(-c2nnc3n2-c2ccccc2SC3)cc1 | 102.0 | 104.0 | -1.5 | -4.6
Cc1ccn(CCC(=O)N(C)Cc2ccco2)n1 | 100.0 | 102.0 | -1.5 | -7.7
NC(=O)c1cnn(-c2ccc(C(F)(F)F)cn2)c1N | 102.0 | 103.0 | / | -1.6
CC(C(=O)Nc1nc2ccc(S(=O)(=O)N3CCOCC3)cc2s1)N1C(=O)c2ccccc2C1=O (stereo not drawn) | 99.0 | 102.0 | -8.4 | -0.3
CCOC(=O)c1c(-c2ccccc2)csc1/N=C/c1nc(-c2ccco2)oc1O | 75.0 | 193.0 | -1.7 | 0.0
CCOc1ccc(OCCNCc2cn(CCC#N)nc2-c2ccccc2)cc1 | 90.0 | 91.0 | -9.2 | 0.6
CCN(CC)c1nc2c(c(=O)n(Cc3ccccc3)c(=O)n2C)n1Cc1ccccc1 | 102.0 | 103.0 | 12.4 | -12.3
CC(C)CNC(=O)CSc1nc(-c2ccc(F)cc2)cc(C(F)(F)F)n1 | 100.0 | 98.0 | -14.5 | -2.5
O=C(Nc1nnc(C2CC2)s1)Nc1ccccc1C(=O)Nc1nnc(C2CC2)s1 | 99.0 | 98.0 | -10.8 | 44.8
CC1(C)CC(CCN)(Cc2ccccc2)CCO1 (stereo not drawn) | 105.0 | 109.0 | -9.5 | /
CC(=NCCCn1ccnc1)c1c(C(F)(F)F)[nH]n(-c2nc3ccccc3s2)c1=O | 102.0 | 99.0 | -23.6 | -11.2
CC(=C/C(=O)O)/C=C/c1ccccc1 | 102.0 | 100.0 | -23.2 | 30.0
CN1CCN(C(=O)CNC(=O)c2ccc(-c3ccccc3)cc2)CC1 | 93.0 | 100.0 | 4.0 | 20.6
COC(=O)c1ccc(N2CCc3ccccc32)s1 | 101.0 | 104.0 | 6.6 | 24.2
O=C(COC(=O)C1CCCN(C(=O)c2ccc(Cl)cc2)C1)c1ccc2c(c1)OCO2 (stereo not drawn) | 109.0 | 122.0 | -23.0 | -4.3
Cc1nc2sccn2c(=O)c1S(=O)(=O)Nc1ccc2c(c1)OCCO2 | 103.0 | 108.0 | -7.7 | -6.0
CC(NC(=O)NC1CCCCC1)c1ccc2c(c1)OCO2 (stereo not drawn) | 100.0 | 102.0 | -3.0 | -25.0
CC(=O)N1CN(CCCn2ccnc2)Cc2c1sc1c2CCCC1 | 102.0 | 102.0 | -22.2 | 12.6
CCOC(=O)CC1NC(=O)c2ccccc21 (stereo not drawn) | 103.0 | 103.0 | 5.4 | 1.4
COC(=O)c1ccc(OC)c(I)c1 | 104.0 | 104.0 | -9.6 | /
O=C(CCn1ccc2cc(S(=O)(=O)N3CCCC3)ccc21)NC1CC1 | 103.0 | 103.0 | 0.2 | -22.4
O=C(CCSc1ccc(Br)cc1)Nc1cccnc1 | 103.0 | 96.0 | / | -4.0
S=C(NCCC1=CCCCC1)Nc1ccc2nsnc2c1 | 94.0 | 109.0 | -29.0 | 5.5
C/C(N)=C(/C#N)C(=O)CSc1ccccc1F | 103.0 | 105.0 | 8.6 | 20.1
Nc1nc(CSc2nnc3c(n2)[nH]c2ccccc23)cs1 | 101.0 | 94.0 | -36.2 | 3.3
CCOC(=O)c1cnn(C(=O)Cc2cccc(OC)c2)c1N | 102.0 | 97.0 | 3.3 | -7.8
CCOC(=O)CSc1nc2c(cc1C#N)CCCC2 | 98.0 | 98.0 | -23.0 | 3.0
CC(C1CC1)N(C(=O)c1ccc(N)cc1)c1ccccc1 (stereo not drawn) | 103.0 | 102.0 | / | -0.9
CC(C)CNS(=O)(=O)c1ccc(CCC(=O)Nc2ccc3c(c2)OCO3)cc1 | 99.0 | 102.0 | -41.0 | -5.9
Cc1cc(C(=O)N(CCc2ccccc2)c2nc3ccccc3s2)on1 | 108.0 | 113.0 | -2.5 | -2.4
C=C1SC(Nc2ccc(C)cc2)=NC1(C)C | 100.0 | 103.0 | -26.4 | 1.1
CC(CC(=O)Nc1nc(-c2cccs2)cs1)c1ccccc1 (stereo not drawn) | 104.0 | 108.0 | -46.1 | 9.2
CC(=O)c1c(O)c(C)c(O)c(Cc2c(O)c3c(c(C(=O)/C=C/c4ccccc4)c2O)OC(C)(C)C=C3)c1O | 101.0&99.0 | 102.0&99.0 | -0.4 | 3.1
COc1ccc(Cl)cc1NC(=O)C(C)N1c2ccccc2CC1C (stereo not drawn) | 98.0 | 105.0 | -16.0 | -27.2
CSc1sc(SC)c(CO)c1CO | 105.0 | 106.0 | 1.6 | /
CCC(=O)N1N=C(C(F)(F)F)CC1(O)c1ccc(F)cc1 (stereo not drawn) | 101.0 | 97.0 | 1.2 | /
Cn1c2c(c3cc(Oc4ccccc4)ccc31)CCCC2=O | 102.0 | 97.0 | -42.7 | 1.5
COC(=O)c1ccc(NC(=O)C23CC4CC(CC(Cl)(C4)C2)C3)cc1 | 101.0 | 104.0 | / | -3.6

Exported tab-delimited: entries from further up
Molecule	Polio RdRp inh	Polio RdRp inh intensity	MenB inh	Mtb MbtI inh
CC(CC(=O)Nc1nc(-c2cccs2)cs1)c1ccccc1 (stereo not drawn)	104.0	108.0	-46.1	9.2
CC(=O)c1c(O)c(C)c(O)c(Cc2c(O)c3c(c(C(=O)/C=C/c4ccccc4)c2O)OC(C)(C)C=C3)c1O	101.0&99.0	102.0&99.0	-0.4	3.1
COc1ccc(Cl)cc1NC(=O)C(C)N1c2ccccc2CC1C (stereo not drawn)	98.0	105.0	-16.0	-27.2
CSc1sc(SC)c(CO)c1CO	105.0	106.0	1.6	/
CCC(=O)N1N=C(C(F)(F)F)CC1(O)c1ccc(F)cc1 (stereo not drawn)	101.0	97.0	1.2	/
Cn1c2c(c3cc(Oc4ccccc4)ccc31)CCCC2=O	102.0	97.0	-42.7	1.5
COC(=O)c1ccc(NC(=O)C23CC4CC(CC(Cl)(C4)C2)C3)cc1	101.0	104.0	/	-3.6

Additional records follow:
SMILES | Polio RdRp inh | Polio RdRp inh intensity | MenB inh | Mtb MbtI inh
O=C(/C=C/c1ccco1)Nc1cccc(-c2nc3ccccc3o2)c1 | 102.0 | 101.0 | -9.9 | 33.8
CC(Oc1ccccc1)C(=O)N[C@@H]1C(=O)N2[C@@H]1SC(C)(C)[C@@H]2C(=O)O (stereo partly drawn) | 99.0 | 103.0 | 1.9 | -0.3
C=CC1CN2CCC1CC2C(OC(=O)OCC)c1ccnc2ccc(OC)cc12 (stereo not drawn) | 99.0 | 95.0 | -8.5 | 48.8
COc1ccc2c(c1)Nc1ccccc1S2 | 103.0 | 103.0 | -20.4 | /
N#Cc1cn(CC(=O)N2CCCC2)c2ccccc12 | 103.0 | 101.0 | -12.5 | -3.5
NNC(=O)C(O)c1ccccc1 (stereo not drawn) | 103.0 | 102.0 | 5.9 | /
CN1C(=O)C(=C/C=C/c2ccccc2)C(=O)N(C)C1=O | 102.0 | 103.0 | -41.9 | 82.2*
CCCc1cc(=O)[nH]c(SCc2cc(C(=O)OC)c(C)o2)n1 | 99.0 | 113.0 | -12.4 | 6.1
COc1cc2[nH]c(=S)nc(Nc3ccc(NC(C)=O)cc3)c2cc1OC | 100.0 | 95.0 | -44.3 | -4.2
CCOC(=O)c1c(C)[nH]c(C)c1S(=O)(=O)NCC1CCN(Cc2ccccc2F)CC1 | 100.0 | 101.0 | -19.0 | -20.1
O=C(O)C1CC(=O)N(C2CCCC2)C1 (stereo not drawn) | 103.0 | 105.0 | -18.2 | -4.5
CCOc1ccc2oc(C(=O)OCC(=O)N3CCCc4ccccc43)c(C)c2c1 | 102.0 | 114.0 | -9.5 | -2.8
c1ccc(CN2CCSCC2)cc1 | 101.0 | 104.0 | 22.8 | 2.1
O=C(NC1CCCCCC1)c1c(O)c2ccccc2[nH]c1=O | 102.0 | 103.0 | 26.2 | 9.8
Cc1ccc2nc(NC(=O)CCCC(=O)O)sc2c1 | 100.0 | 102.0 | -15.4 | 15.0
COc1cccc(CNC(=O)c2[nH]c3cc(C)ccc3c2Sc2ccc(Cl)cc2)c1OC | 99.0 | 100.0 | -33.0 | 5.3
S=c1nc2[nH]c3ccc(Br)cc3c2n[nH]1 | 100.0 | 102.0 | -24.8 | 7.1
Cc1cc2nsnc2c2nsnc12 | 100.0 | 101.0 | -11.2 | 4.5
COC(=O)CC1Nc2ccccc2NC1=O (stereo not drawn) | 103.0 | 103.0 | 8.7 | 84.3
C1=CCC2CC=CC(C1)N2 (stereo not drawn) | 104.0 | 104.0 | -29.7 | -8.9
CN(C)S(=O)(=O)c1cccc(CSc2nc3ccccc3n2CCC#N)c1 | 106.0 | 106.0 | -43.6 | 3.8
CCN(CC(=O)Nc1cc(Cl)ccc1C)CC(=O)N1CCOC1=O | 114.0 | 123.0 | -34.0 | -4.9
Cc1cc2c(n1-c1ccc(C(=O)N3CCC4(CC3)OCCO4)cc1)CCC(C)C2 (stereo not drawn) | 106.0 | 118.0 | -21.8 | -4.6
CCn1cc(/C=N/O)c2ccccc21 | 102.0 | 104.0 | -45.6 | 49.9
CC(C)C(=O)Nc1c(C(=O)c2ccc(F)cc2)oc2ccccc12 | 105.0 | 103.0 | -19.9 | 29.8
O=C(CCCN1C(=O)/C(=C\c2ccco2)SC1=S)Nc1ccc2c(c1)OCO2 | 101.0 | 105.0 | -141.0 | 14.4
O=c1[nH]c2ccc(Nc3cc(N4CCOCC4)ncn3)cc2[nH]1 | 99.0 | 104.0 | 4.1 | 11.6
COc1ccc(C(CC(=O)Nc2cccnc2)N2Cc3ccccc3C2=O)cc1 (stereo not drawn) | 102.0 | 102.0 | -11.4 | -11.2
O=C(O)CCC(=O)N1CCc2cc(S(=O)(=O)NCc3cccs3)ccc21 | 103.0 | 101.0 | -22.3 | -1.1
CC(C1CC1)N(C(=O)/C=C/c1ccccc1)c1ccccc1 (stereo not drawn) | 104.0 | 100.0 | / | 5.0
CC(O)(CC(=O)O)C(F)(F)F (stereo not drawn) | 96.0 | 97.0 | 0.7 | -18.9
N#CCCn1cc(C(=O)CSc2ccccn2)c2ccccc21 | 105.0 | 105.0 | -14.3 | 7.8
O=C(CCN1CCC(c2ccc(Cl)s2)=N1)c1ccc(Cl)s1 | 103.0 | 95.0 | -20.5 | 10.4
O=C(Nc1cccnc1)c1ccc2snnc2c1 | 103.0 | 102.0 | 13.5 | 13.2

Compound activity as filed in PubChem.
